Compound activity as filed in PubChem BioAssay.
GIV-Gai inh: inhibitors of GIV peptide binding to Galpha-i3, primary screen, biochemical, fluorescence polarization, FITC-GIV GBA peptide, rat Galphai3; 90 min; active compounds read low; scaled: aluminum fluoride 0%, vehicle 100%; percent of control (FP), % (concentration not given with the values); 0.42% of 210,000 active;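 active means replicate mean at 85% of control or lower, very high polarization wells dropped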;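 further: wells of about 15 µL received 100 nL stock; the first replicate is given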
Target sequence (P08753 whole entry, looked up): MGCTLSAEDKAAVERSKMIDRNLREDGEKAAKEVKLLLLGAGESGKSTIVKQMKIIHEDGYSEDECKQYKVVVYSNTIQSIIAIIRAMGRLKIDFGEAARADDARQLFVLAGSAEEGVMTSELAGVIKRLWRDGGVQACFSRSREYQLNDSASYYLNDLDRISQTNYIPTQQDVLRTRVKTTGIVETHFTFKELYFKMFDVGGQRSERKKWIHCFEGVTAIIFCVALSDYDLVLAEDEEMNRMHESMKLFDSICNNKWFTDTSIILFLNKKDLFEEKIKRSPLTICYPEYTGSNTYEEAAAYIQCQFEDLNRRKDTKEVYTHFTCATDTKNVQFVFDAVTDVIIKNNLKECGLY
Sa growth 42C: S. aureus growth inhibition at 42 and 30 °C, primary screen, LtaS inhibitor project, RN4220, two temperatures; 0.53% of 170,000 active; OD600, 20 h, 42 °C; active compounds read low; AID 720641, 2013; relative growth, % (concentration not given with the values);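 active means growth at 42 °C up to 50% and 20 or more points under that at 30 °C, or under 10% at both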;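 further: 300 nL library stock went into each well; scaled to the means of positive and negative controls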
HCMV NEC inh: inhibitors of HCMV UL50-UL53 interaction, biochemical, HTRF | normalized percent inhibition | inhibition, % (test concentration not listed) | 0.15% of 190,000 active;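 active means both replicates at 50% or more, plus weaker picks with an unusually low signal ratio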;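 further: stock transfer was 100 nL into about 20 µL; 0% = negative control wells and 100% = wells with untagged competitor protein; inactives centre near -12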
Sa growth 42C second temp: second read-out of Sa growth 42C, no call of its own (marks repeat the call); relative growth, %; measured here: growth at 30 °C;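 optical density after 20 h as mean of two plates; 100% = untreated growth and lower means inhibition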
Starred values were filed as active, the others as inactive; . = not tested or not shown; & = joins results of further samples. Outcome played no part in choosing rows; 0.79% or so of the library scored in one or more.

SMILES | GIV-Gai inh | Sa growth 42C | Sa growth 42C second temp | HCMV NEC inh
c1cncc(CN2CNc3nc4ccccc4n3C2)c1 | 105 | 93 | 78 | -78
CCCCCCCCCC1NC(C(=O)O)Cc2c1[nH]c1ccccc21 (stereo not given) | 103 | . | . | -10
COc1ccc(N2CCN(CCCNC(=O)c3cnn(-c4ccc(F)cc4)c3-n3cccc3)CC2)cc1 | 100 | 85 | 90 | .
CCc1nn(C(C)C(=O)N2CCN(c3cccc(OC)c3)CC2)c(=O)c2cc3occc3n12 (stereo not given) | 103 | 99 | 88 | -9
Cc1cccc(NC(=O)CSc2nc3ccccc3nc2N2CCOCC2)c1C | 106 | 85 | 89 | -36
CCCN1C(=O)c2ccc(-c3ccccc3)n2CC1(C)C(=O)NC1CCCC1 (stereo not given) | 100 | . | . | 10
Cc1ccccc1OCC(=O)NN=C1CCN(C)CC1 | 101 | 88 | 85 | -35
Cc1c(CO)c2ccccc2n1Cc1ccccc1 | 106 | 102 | 92 | -14
COC(=O)c1cnc(Nc2ccccc2)nc1C(F)(F)F | 100 | 91 | 96 | -30
Cn1c(=O)c2cnc(N3CCCCC3)nc2n(C)c1=O | . | 98 | 92 | -17
CCc1ccc(C(=O)c2cn(CC(=O)Nc3ccc(F)cc3)c3ccc(OC)cc3c2=O)cc1 | 102 | 109 | 90 | 4
CN(CCc1ccccn1)Cc1cccc(F)c1 | 101 | 112 | 95 | -14
CCOc1ccc(CCN=C2CC(c3ccccc3)CC(=O)/C2=C(/O)CC)cc1OCC (stereo not given) | . | 92 | 82 | -6
CCCn1cc(S(=O)(=O)c2ccc(OC)cc2)c(=O)c2cc(F)c(N3CCN(C)CC3)cc21 | 68* | 106 | 102 | -12
CCc1ccc(N(CC)C(=O)Cn2cnc3sc(C)c(S(=O)(=O)N4CCN(c5ncccn5)CC4)c3c2=O)cc1 | 103 | 91 | 93 | -21
Cc1ccc2cc3cc(C(=O)NCc4cccs4)sc3nc2c1 | 99 | 74 | 89 | .
CNC(=O)c1c[nH]c2ccc(S(=O)(=O)Nc3ccc(C(C)C)cc3)cc2c1=O | 97 | 106 | 92 | 0
CN(C(=O)CN1N=NC2C(=O)N(c3ccc(Br)cc3)C(=O)C21)c1ccccc1 (stereo not given) | 96 | 103 | 89 | -12
O=C(COc1ccc(Cl)cc1)NCCN1CCCCC1 | 99 | 90 | 92 | -11
C=C(CC(=O)N1CCOCC1)C(=O)N1CCOCC1 | 106 | 115 | 95 | 5
N#C/C(=C\c1ccc(Cl)c(Cl)c1)c1ccc(NC(N)=O)cc1 | 100 | 84 | 76 | -35
CC(C)Cn1c(=O)c2ccccc2n2c(CCC(=O)Nc3ccc(F)cc3)nnc12 | 97 | 100 | 84 | -28
COC(=O)c1c(-c2cccs2)csc1NC(=O)COc1ccc(C(C)(C)C)cc1 | 102 | 102 | 87 | -31
Fc1cccc(Oc2ncnc3scc(-c4ccccc4)c23)c1 | . | 104 | 74 | -15
CCC(Sc1nc2n[nH]c(C)c2c(=N)n1-c1ccccc1C)C(=O)N1CCCC1 (stereo not given) | . | 80 | 81 | -1

Some of the entries above in another layout.
Order of values: GIV-Gai inh, Sa growth 42C, Sa growth 42C second temp, HCMV NEC inh
- CCc1ccc(C(=O)c2cn(CC(=O)Nc3ccc(F)cc3)c3ccc(OC)cc3c2=O)cc1
 : 102, 109, 90, 4
- CN(CCc1ccccn1)Cc1cccc(F)c1
 : 101, 112, 95, -14
- CCOc1ccc(CCN=C2CC(c3ccccc3)CC(=O)/C2=C(/O)CC)cc1OCC (stereo not given)
 : ., 92, 82, -6

The list goes on:
SMILES | GIV-Gai inh | Sa growth 42C | Sa growth 42C second temp | HCMV NEC inh
COc1ccc(CNC(=O)c2cccn3c(=O)c4c5c(sc4nc23)CCCC5)cc1 | 101&114 | 101 | 84 | -12
CCN(CC)C(=O)c1cc2ccccc2oc1=O | 103 | 101 | 117 | -20
Cc1ccc(O)c(NC(=O)CCSc2nc(-c3ccco3)cc(C(F)(F)F)n2)c1 | 100 | 104 | 93 | -18
Cc1nn(-c2ccccc2)c(C)c1CCc1nn2c(-c3cccc(F)c3)nnc2s1 | 104 | . | . | -22
Cc1nc(NCC2CCCO2)nc2c1C(=O)CC(C)(C)C2 (stereo not given) | 98 | 95 | 86 | -10
N#Cc1ccc(CS/C(N)=N/N)cc1 | 101 | 104 | 78 | -4
CC1(C)OC(=O)C(=Cc2ccc(F)cc2)C(=O)O1 | 97 | 80 | 83 | -8
CC(C)NC(=O)C1CCN(C(=O)c2ccc(-n3ccc4ccccc43)s2)CC1 | 107 | 109 | 86 | -19
COc1ccc(C(=O)N2CCN(C(=O)COc3ccc(C)cc3)CC2)cc1OC | 106 | 112 | 91 | -10
CC(=O)Oc1c(Sc2c(F)c(F)c(F)c(F)c2F)c(C)nn1C(C)(C)C | 97 | 109 | 86 | .
N#Cc1cc2c(ccc3ccccc32)oc1=O | 96 | 96 | 91 | -35
CC(C)(C)CC(C)(C)NC(=O)C1CCCO1 (stereo not given) | 109 | 108 | 91 | -10
COc1cccc(CN(C)Cc2cc(=O)oc3cc(O)c(Cl)cc23)c1 | . | 58 | 58 | -34
O=C(NCCc1csc(-c2ccc(F)cc2)n1)c1ccco1 | 101 | 85 | 79 | .
N=C(N=Nc1c(O)n(Cc2ccccc2)c2ccccc12)SCC(=O)Nc1ccccc1 | 96 | 66 | 37 | -72
CCN(CC)C(=O)CSc1nc(N)c(C#N)c(CC(C)C)c1C#N | . | 87 | 83 | 46
CCCn1c(=O)c2c(nc3n2CCCCN3c2ccc(OCC)cc2)n(C)c1=O | 96 | . | . | -20
NS(=O)(=O)c1ccc2[nH]c3c(c2c1)CCCC3 | 106 | 85 | 65 | -22
CCOC(=O)c1ccc(N=Cc2c(O)n(CC)c(=O)[nH]c2=O)cc1 | 100 | 100 | 96 | 13
CC(=O)c1ccc(NC(=O)c2cc(-c3ccc4c(c3)OCO4)on2)cc1 | 103 | 96 | 84 | -16
CCOC(=O)c1ccc(NC(=O)C2CCN(S(=O)(=O)c3ccc4c(c3)CCCC(=O)N4)CC2)cc1 | 109 | 95 | 81 | .
CCCNc1c(NC(=O)C2CCC(C)CC2)c(=O)oc2ccccc12 (stereo not given) | 105 | 105 | 81 | -41
Cn1cnnc1SCC(=O)NCc1ccccc1 | . | 96 | 97 | -17
Cc1ccc(S(=O)(=O)c2nnn3c2nc(NC(C)C)c2sccc23)cc1 | 108 | 113 | 86 | .
CC1CC(CC(C)C(=O)Nc2cc(Cl)ccc2Cl)C(=O)O1 (stereo not given) | 106 | 115 | 91 | -11

Limited to Sa growth 42C, Sa growth 42C second temp and GIV-Gai inh, for some of the entries so far:
molecule	Sa growth 42C	Sa growth 42C second temp	GIV-Gai inh
COc1cccc(CN(C)Cc2cc(=O)oc3cc(O)c(Cl)cc23)c1	58	58	.
Cc1ccc(S(=O)(=O)c2nnn3c2nc(NC(C)C)c2sccc23)cc1	113	86	108
CCOC(=O)c1ccc(NC(=O)C2CCN(S(=O)(=O)c3ccc4c(c3)CCCC(=O)N4)CC2)cc1	95	81	109
NS(=O)(=O)c1ccc2[nH]c3c(c2c1)CCCC3	85	65	106

Complete entries, looked up by structure. Order of screens: GIV-Gai inh	Sa growth 42C	Sa growth 42C second temp	HCMV NEC inh
COc1ccc(C(=O)N2CCN(C(=O)COc3ccc(C)cc3)CC2)cc1OC is listed as 106	112	91	-10
Cc1nc(NCC2CCCO2)nc2c1C(=O)CC(C)(C)C2 (stereo not given) is listed as 98	95	86	-10
N#Cc1ccc(CS/C(N)=N/N)cc1 is listed as 101	104	78	-4
Cc1ccc(O)c(NC(=O)CCSc2nc(-c3ccco3)cc(C(F)(F)F)n2)c1 is listed as 100	104	93	-18
COc1cccc(CN(C)Cc2cc(=O)oc3cc(O)c(Cl)cc23)c1 is listed as .	58	58	-34

Next section.
SMILES | GIV-Gai inh | Sa growth 42C | Sa growth 42C second temp | HCMV NEC inh
COc1ccc(CCNC(=O)Cn2c(=O)c3cccn3c3ccc(F)cc32)c(OC)c1 | 101 | 112 | 86 | -2
CC(=O)NCC(=O)OCc1ccc(C(C)(C)C)cc1 | . | 97 | 91 | -13
CN(C)c1cc(NCc2ccco2)c2c3c(onc13)-c1ccccc1C2=O | 196 | 102 | 85 | -64
O=C(CCc1ccccc1)NNc1cc(N2CCCCC2)nc(N2CCCCC2)n1 | 103 | 69 | 104 | -4
Cc1ccnc(NC(c2cccnc2)c2c(NC(=O)c3ccccc3)sc3c2CCCC3)c1 (stereo not given) | 100 | . | . | -30
CCOC(=O)c1c(NC(C)=O)c2c3c(sc2n1CC(=O)Nc1ccc(Cl)cc1)CCCC3 | 103 | . | . | -10
CCC(C(=O)Nc1ccc2c(c1)OCO2)n1nc(-c2ccccc2)c2c(c1=O)CCCC2 (stereo not given) | 97 | . | . | 2
CC(C)C(=O)Nc1ccc(NCc2cccs2)cc1 | 101 | 110 | 83 | .
COc1ccccc1CNC(=O)CCn1c(=O)c2ccccc2n(CC(=O)Nc2cc(Cl)ccc2C)c1=O | 104 | 105 | 96 | -17
CCn1c(NN)nc2sc3c(c2c1=O)CC(C)(C)OC3 | 105 | 87 | 99 | -8
COc1cc(OC)c(NC(=O)Cc2ccc(-n3c(C)nc4cccnc43)cc2)cc1Cl | 112 | 95 | 109 | .
COc1ccc(CNCc2cccs2)c(OC)c1OC | 100 | 88 | 92 | -14
CCOC(=O)Cn1c(=O)cc(C(F)(F)C(F)(F)F)c2c(C)nn(CC)c21 | 108 | 110 | 103 | .
c1ccc2oc(SCc3nc4ccccc4s3)nc2c1 | . | 92 | 99 | -15
CC1CCN(C(=O)COc2ccc(Br)cc2)CC1 | . | 117 | 86 | -3
CC(C)CNC(N)=O | . | 91 | 92 | -7
O=S(=O)(c1ccc2nc(Nc3cccc(F)c3)ccc2c1)N1CCCCC1 | 105 | . | . | -14
Cc1cc(C)c2c(n1)SCCN2C(=O)Nc1ccc(C(=O)NCCN2CCCCC2C)cc1 (stereo not given) | 98 | . | . | 0
CC(C)(C)C(=O)NCC(c1cccnc1)N1CCOCC1 (stereo not given) | 101 | . | . | -19
O=C(NCC(c1cccs1)S(=O)(=O)c1cccs1)c1cccc(F)c1 (stereo not given) | 101 | 80 | 91 | .
Cc1oc2ncn(CCC(=O)NC3CCCC3)c(=O)c2c1C | 103 | . | . | -15
Cc1ccc(C(=O)NCc2ccc(N(C)C)cc2)cc1NC(=O)c1nsc2ccccc12 | 108 | 112 | 83 | .
O=C(CN1C(=O)CCc2cc(S(=O)(=O)N3CCOCC3)ccc21)NCc1ccccc1Cl | 98 | 94 | 84 | .
COc1ccc(S(=O)(=O)NC2CCc3ccccc32)cc1OC (stereo not given) | 100 | 97 | 80 | -13
COc1ccc(CCNC(=O)c2c(C)oc3nc(C)nc(N4CCOCC4)c23)cc1OC | 102 | 90 | 87 | .
Additional records
SMILES | GIV-Gai inh | Sa growth 42C | Sa growth 42C second temp | HCMV NEC inh
CCOC(=O)c1c(NC(=O)CSc2n[nH]c(N)n2)sc(C(=O)N(CC)CC)c1C | . | 96 | 89 | -3
CCOC(=O)N1CCC(N2CC34C=CC(O3)C(C(=O)Nc3ccc(C)c(F)c3)C4C2=O)CC1 (stereo not given) | 98 | 97 | 89 | -2
CC(C)CN1C(=O)c2ccc(C(=O)O)cc2C1=O | 103 | 88 | 79 | -76
O=C(O)c1ccccc1C(=O)N1CCN(c2ccccc2)CC1 | . | 92 | 85 | -28
Cc1ccc(N2C(=O)/C(=C/C=C/c3ccccc3)SC2=S)cc1 | 103 | 95 | 89 | .
c1ccc(CSc2nnc(-c3cccs3)n2-c2ccccc2)cc1 | . | 97 | 94 | 12
CC(C#N)Sc1nnc(-c2ccccc2F)n1CCc1ccccc1 (stereo not given) | . | 98 | 93 | 15
c1ccc(-c2cnnn2-c2ccccc2)cc1 | 108 | 96 | 91 | -18
COC(=O)C1=CN(CC(C)C)C=C(C(=O)OC)C1c1cccs1 | 103 | 89 | 100 | -20
CCC(C)NC(=O)Cn1c(=O)n(Cc2ccc(C(=O)NCCCOC)cc2)c(=O)c2ccccc21 (stereo not given) | 104 | 101 | 86 | -24
CC(C)N(Cc1nc(-c2ccccc2)no1)C(=O)c1ccc(Cl)cc1 | 101 | 119 | 88 | -5
CCC1Oc2ccc(Cl)cc2N(CC(=O)Nc2nnc(Cc3cn(C)c4ccccc34)s2)C1=O (stereo not given) | 99 | . | . | -14
Cc1cc(C)nc(SCc2csc(N)n2)n1 | 96 | 100 | 108 | -13
Clc1ccc(CSc2nnc(-c3ccc(Br)cc3)o2)cc1 | 100 | . | . | -31
O=S(=O)(c1ccc(N2CCOCC2)nc1)N1CCSCC1 | 99 | 103 | 92 | 0
CCC1=Nc2cc(C(=O)NCCCOC(C)C)ccc2Sc2ccc(C)cc21 | 106 | 105 | 95 | .
CN1NC2(CCCCC2)N(c2ccccc2)C1=S | . | 105 | 86 | -11
Cc1cccc(N2CCN(CCCNC(=O)c3nnc(Cc4c(F)cccc4Cl)o3)CC2C)c1 (stereo not given) | 101 | 114 | 86 | 2
CC1=NN(c2ccccc2)C(c2ccc(OCC(=O)N3CCCC3)cc2)C1 (stereo not given) | 107 | 109 | 81 | .
COc1cc(/C=C2\C(=O)NC(=S)N(c3ccc(Br)cc3)C2=O)ccc1OCC(=O)O | 104 | . | . | -25
Cc1nc(N2CCOCC2)cc(N2CCN(C(=O)c3ccco3)CC2)n1 | 100 | . | . | -27
CCC(=O)Nc1cccc(-c2nc3ccccc3o2)c1 | . | 97 | 73 | -7
